H5N1 antiviral – antiviral screen in MDCK cells, H5N1 avian flu | hit rate 0.07% among 96,000 | AID 740 | cytopathic effect, luminescence, 72 h; stronger effect = higher value; no value below 0 was filed and about half of the inactive calls have no number; reference of the scale not given here | inhibition, % at 50 µM; in the data active = inhibition above about 25%
Numbers without * were called inactive; i = inactive. Not all compounds are listed; rates above refer to the full screens.

item	canonical_smiles	H5N1 antiviral
1	CCOc1ccc(-c2cn(S(=O)(=O)c3cccc4nsnc34)nc2N)cc1	i
2	C=CCOc1ccc(CNn2c(C)n[nH]c2=S)cc1OC	i
3	Cc1ccc(-c2nnc3ccc(SCC(=O)Nc4cc(C)on4)nn23)cc1	i
4	CCCCn1c(NC(=O)c2ccco2)c(C(=O)OCC)c2nc3ccccc3nc21	i
5	COc1ccccc1OCC(=O)Nc1ccc(S(=O)(=O)Nc2cc(C)nc(C)n2)cc1	1.1
6	COc1ccc(OC)c(S(=O)(=O)N(C)CC(=O)N2CCc3ccccc3C2)c1	i
7	N#CCCn1c2ccccc2c2nc3ccccc3nc21	0.1
8	Cc1ccc(CNC(=O)CSc2nc(C)cc(C)c2C#N)cc1	2.3
9	N#Cc1c(SCC(=O)N2CCCCC2)nsc1SCC(=O)N1CCCCC1	5.3
10	O=C(OCCCN1CCCC1)C1(c2ccccc2)CCCC1	0.2
11	COc1cc(C)c(C(C)C)cc1S(=O)(=O)NCCCn1ccnc1	i
12	COCC(C)NC(=O)c1ccccc1OC(C)=O (stereo unspecified)	0.1
13	CC1CCCN(S(=O)(=O)c2cc(Cl)ccc2Cl)C1 (stereo unspecified)	0.7
14	CCn1c(SCc2cccc(C(=O)O)c2)nnc1-c1ccccc1	0.7
15	CCOc1ccc(NC(=O)CN2CCN(CC(=O)Nc3ccc(F)c(F)c3)CC2)cc1	i
16	COc1ccc(-n2c(SC(CN3CCCCC3)CN3CCCC3=O)nc3ccccc3c2=O)cc1 (stereo unspecified)	i
17	CCOc1ccccc1NC(=O)N1CCCC1C(=O)Nc1nnc(CC)s1 (stereo unspecified)	1.1
18	CCOc1ccc2nc(NC(=O)C3CCCN(S(=O)(=O)c4cccc5nonc45)C3)sc2c1 (stereo unspecified)	i
19	COc1cccc(NC2=NCC(=O)N2Cc2cccs2)c1	i
20	C=CCn1c(-c2cccc(OC)c2)nc2nc3ccccc3nc21	2.7
21	COc1ccc(N(C(C)C(=O)NCc2ccco2)S(C)(=O)=O)cc1 (stereo unspecified)	i
22	COc1ccc(Cn2c(/C=C/c3ccccc3)nc3ccccc32)cc1	i
23	CCn1c(SCC(=O)NC2CCCCC2)nc2c(c1=O)SC(C)C2 (stereo unspecified)	2.3
24	CCn1nc(NC(=O)c2ccccn2)c2cc3cccc(C)c3nc21	i
25	O=C1CS/C(=C\[N+](=O)[O-])N1c1ccccc1	0.1
26	Clc1ccc(CSc2nnc(NC3=NCCCCC3)s2)cc1	1.4
27	O=c1c2ccccc2nc(SCc2cc(F)cc3c2OCOC3)n1Cc1ccco1	i
28	CCOC(=O)c1c(NC(=O)CNCCO)sc(C)c1C	0.1
29	COc1cccc(C(=O)NC(C)C(c2cccs2)N2CCOCC2)c1 (stereo unspecified)	1.2
30	COc1ccc(C2CC3CC(c4ccccc4)N2O3)cc1 (stereo unspecified)	0.7
31	COc1ccccc1NC(=O)N1CCN(c2ccccn2)CC1	i
32	CCOC(=O)CNC(=O)Cn1cnc2c(nnn2-c2ccc(F)cc2)c1=O	1.0
33	CCOC(=O)c1sc(C)c(C(=O)NCCCN2CCOCC2)c1N	0.1
34	COc1cccc(-c2noc(CCC(=O)NC3CCCCC3)n2)c1	i
35	COC(=O)CCn1nnc(-c2ccc(C(C)C)cc2)n1	i
36	Cc1ccc(-c2cc(N)n(-c3ccccc3)n2)cc1	i
37	CC1=C(C#N)C(c2ccoc2)C(C(=O)OCc2ccccc2)=C(N)S1 (stereo unspecified)	i
38	CCOC(=O)c1sc(=S)n(CC)c1NC(=O)CC	1.6
39	CCCCOC(=O)c1ccc(NC(=O)CSc2nncn2C)cc1	i
40	Oc1ccc(-c2nccc(-c3cccs3)n2)cc1	9.9
41	Cc1ccc(S(=O)(=O)NNC(=O)c2sc3nc(C)cc(C)c3c2-n2cccc2)cc1	1.3
42	COc1ccc(CCNC(=O)CN(c2ccc(OC)c(OC)c2)S(C)(=O)=O)cc1OC	0.2
43	CCC(C)(C)NC(=O)CN(Cc1cccs1)C(=O)CCC(=O)Nc1nccs1	i
44	CC(C)Cn1c(CN2CCCCC2C)nc2c1c(=O)n(C)c(=O)n2C (stereo unspecified)	1.4
45	Cc1ccc(OCc2nc(-c3ccccn3)n[nH]2)cc1	1.0
46	Clc1ccc(SCCn2cncn2)cc1	0.9
47	O=C1CN(C(=O)c2ccccn2)c2ccccc2N1	i
48	COCC(C)n1c(C)cc(C(=O)CN2C(=O)NC3(CCCCC3C)C2=O)c1C (stereo unspecified)	0.1
49	CCc1ccc(NC(=O)CCc2nc3cccnc3n2Cc2ccc(OC)cc2)cc1	i
50	Cn1cccc1Cc1nnc(SCC(=O)Nc2ccc(F)cc2)n1CCc1ccccc1	0.1
51	COC(=O)c1ccccc1NC(=O)Nc1ccc(C(=O)N2CCCC2)cc1	i
52	CCOC(=O)c1sc(NCc2ccco2)c(-c2nc3ccccc3s2)c1N	i
53	CCOC(=O)CSc1nc(-c2ccncc2)ccc1C#N	0.8
54	COC(=O)c1ccc(OCC(=O)c2ccccc2)cc1	i
55	CCCCOC(=O)Cn1c(=O)n(CC(=O)OCCCC)c2ccccc21	i
56	O=C(O)CCCNS(=O)(=O)c1ccc(Br)s1	0.6
57	CN(C)N1C(N)=C(C#N)C(c2cccnc2)C2=C1CC(C)(C)CC2=O (stereo unspecified)	1.2
58	Cc1cccc(NC(=O)CCOc2ccccc2)c1	i
59	COc1ccc(C)cc1S(=O)(=O)NC1CCCC1	0.8
60	O=C(NCc1ccco1)N1c2ccccc2Sc2ccccc21	3.2

Copied from above: entries 59 to 60
item	canonical_smiles	H5N1 antiviral
59	COc1ccc(C)cc1S(=O)(=O)NC1CCCC1	0.8
60	O=C(NCc1ccco1)N1c2ccccc2Sc2ccccc21	3.2

Reformatted: entries from further up.
(40) Oc1ccc(-c2nccc(-c3cccs3)n2)cc1
  H5N1 antiviral: 9.9
(51) COC(=O)c1ccccc1NC(=O)Nc1ccc(C(=O)N2CCCC2)cc1
  H5N1 antiviral: i
(47) O=C1CN(C(=O)c2ccccn2)c2ccccc2N1
  H5N1 antiviral: i
(46) Clc1ccc(SCCn2cncn2)cc1
  H5N1 antiviral: 0.9

(more compounds)
item	canonical_smiles	H5N1 antiviral
61	COc1ccccc1-c1nc(-c2ccncc2)no1	i
62	O=c1ccccn1Cc1c(Cl)cccc1Cl	1.0
63	CCCC1CCc2c(sc(NC(=O)c3cccs3)c2C(N)=O)C1 (stereo unspecified)	i
64	CCOCc1nnc(NC(=O)CSCc2ccccc2)s1	0.1
65	CC(C)(C)C(=O)NC1CCN(S(=O)(=O)c2cccc(C(F)(F)F)c2)CC1	0.2
66	COc1cc(C(=O)Nc2cccc(-c3nc4cc(C)cc(C)c4o3)c2)cc(OC)c1OC	i
67	CC(=O)c1ccc(Nc2nc(=O)c3cccnc3s2)cc1	i
68	COC(=O)c1c(NC(=O)CSc2nnnn2C)sc(C)c1C	i
69	NC(=O)C(c1ncc(C(F)(F)F)cc1Cl)c1c(Cl)cccc1Cl (stereo unspecified)	i
70	CSc1nnc(NC(=O)c2cc3ccccc3oc2=O)s1	i
71	Cc1cnc(C(=O)Nc2ccc(C(=O)N3CCCCC3)cc2)cn1	1.6
72	COc1ccc(CNS(=O)(=O)c2ccc3oc(C(=O)O)c(C)c3c2)cc1	i
73	CCOc1ccc(-c2nnc(N3CCCCC3)c3ccccc23)cc1	3.0
74	COc1ccc2c(c1)Cc1sc(NC(=O)c3cccs3)nc1-2	i
75	O=C(NCc1ccccc1)NS(=O)(=O)c1ccccc1Cl	i
76	Cc1[nH]c2ccccc2c1C(=O)/C=C/c1ccccc1	i
77	Cc1cc(C(=O)Nc2c(C)nn(Cc3ccccc3)c2C)on1	2.4
78	Nc1nc(Nc2ccccc2Br)nc(C(F)(F)F)n1	2.0
79	CCc1cc(C(=O)Cc2nc3ccccc3[nH]2)c(O)cc1O	i
80	CCCCOC(=O)CSC1=C(C#N)C(c2ccccc2OCC)C(C#N)C(=O)N1 (stereo unspecified)	1.0
81	CCOc1ccc(NC(=O)Nc2cc(C)on2)cc1	i
82	O=S1(=O)CC(O)C(NCc2cccnc2)C1 (stereo unspecified)	1.5
83	O=C(NCC1CCCCC1)C1CCN(C(=O)NC2CCCCC2)CC1	i
84	Cc1ccc(S(=O)(=O)N(CCC#N)CCN2CCCC2)cc1	i
85	COc1ccc(OC)c(S(=O)(=O)NC(C)(C)C)c1	i
86	Cn1cnnc1SCc1ccc(C(=O)n2ncc(C#N)c2N)cc1	0.4
87	COc1cccc(N=c2oc3c(C)ncc(CO)c3cc2C(=O)Nc2ccccc2OC)c1	0.9
88	O=C(CN1CCOCC1)Nc1c(-c2ccccc2)c2cc(Br)ccc2[nH]c1=O	i
89	CC1Oc2ccccc2N(CC(=O)N2CCc3ccccc32)C1=O (stereo unspecified)	i
90	COc1ccc(C(=O)n2nc(C)cc2C)cc1Br	i
91	COC(=O)c1ccc2c(c1)SC1=C(CCCC1=O)N2	0.6
92	O=C(NCC(=O)N(c1ccccc1)C(C(=O)NC1CCCCC1)c1ccncc1)c1ccco1 (stereo unspecified)	i
93	COc1ccc(NS(=O)(=O)c2ccc(SC)cc2)cc1	0.3
94	O=C(CCCOc1ccccc1)Nc1ccc2c(c1)OCCO2	i
95	CCN(CCCNC(=O)CCn1c(=O)[nH]c2ccccc2c1=O)c1cccc(C)c1	0.2
96	COc1ccc(-n2nc3cc(C)c(NC(=O)CC(C)C)cc3n2)cc1	0.8
97	COc1ccc2c(c1)c1nnc(SCC(=O)N3CCCCC3C)nc1n2C (stereo unspecified)	4.0
98	O=C(NCCN1CCN(c2ccccc2)CC1)c1cccc(Br)c1	3.5
99	Cc1ccc(NC2SC(=O)N(CC(=O)O)C2=O)cc1 (stereo unspecified)	i
100	CCOCC(=O)Nc1nc2ccc(OC)cc2s1	i
101	O=C(NCCN1CCCC1)c1ccc(Cn2c(=S)[nH]c3cc4c(cc3c2=O)OCO4)cc1	i
102	Cc1cc(Nc2ccccc2)nn1C(=O)c1ccccc1	i
103	COc1ccc(C(CC(=O)c2ccc(O)cc2)S(=O)(=O)c2ccc(C)cc2)cc1 (stereo unspecified)	i
104	COC(=O)C1CCN(C(=O)c2ccc(SC)cc2OC)CC1	i
105	C1CCC(CNc2c3c(nc4nnnn24)CCCC3)CC1	i
106	S=c1[nH]cc(-c2ccccc2)n1-c1ccccc1	i
107	COc1ccc(C(C(=O)NC2CCCC2)N(C(=O)c2ccoc2C)c2ccc(C)cc2)cc1 (stereo unspecified)	i
108	COc1ccccc1NC(=O)CN1CCC(n2nnc3cc(F)ccc32)CC1	0.5
109	O=C(O)c1ccc(COCC(F)(F)C(F)F)o1	2.1
110	Cc1csc(-c2cnn(-c3ccccc3)c2NC(=O)c2cccc(F)c2)n1	i
111	CCNC(=O)N1C(=O)C2(OCCO2)c2cc(Br)ccc21	0.3
112	N=c1ccn(Cc2ccc(Cl)c(Cl)c2)cc1	i
113	C=CCn1c(=NC(=O)C2CCCCC2)sc2cc(NC(C)=O)ccc21	1.3
114	Cc1ccc(S(=O)(=O)N2CCC(C(=O)N3CCC[C@H]3C(=O)NC3CCS(=O)(=O)C3)CC2)cc1 (stereo partly specified)	0.3
115	CCOC(=O)c1cnc2cc3c(cn2c1=O)CCCC3	i
116	CCCCSC1(SCCCC)N=C(N)C2(C#N)C(c3ccccc3)NC(C)=C(C)C12C#N (stereo unspecified)	i
117	O=C(NCSC1=NCCS1)c1ccccc1	1.1
118	Cc1nc(N)c(C#N)c(-c2ccccc2)c1C	i
119	COc1cc(/C=N/N2CCN(c3ccccc3OC)CC2)ccc1O	i
120	CN1CCCN(C2C3CC4CC(C3)CC2C4)CC1 (stereo unspecified)	i

(next part)
item	canonical_smiles	H5N1 antiviral
121	Cc1nc(-n2nnc3ccccc32)c2c3c(sc2n1)CCCC3	1.1
122	CC(C)(C)SCCNC(=O)c1ccccc1	0.7
123	CCCC1(C(=O)OCC)NC(c2cc(OC)c(OC)c(OC)c2)C2C(=O)N(CC)C(=O)C21 (stereo unspecified)	i
124	N/C(=N\OC(=O)c1cc(-c2ccccc2)nc2ccccc12)c1ccc(Cl)cc1	i
125	COc1ccc(Nc2ccc3c(c2)=NC2(CCCCC2)[N+]=3[O-])cc1	i
126	CC(C)(C)C(=O)Nc1ccc(-c2cn3ccsc3n2)cc1	i
127	O=c1[nH]c(=O)n(Cc2ccco2)c2c1C(C(F)(F)F)(C(F)(F)F)N=C(C1CCCCC1)N2	i
128	O=C(Nc1ccon1)c1cccc(S(=O)(=O)N2CCCCCC2)c1	1.1
129	CCCS(=O)(=O)N1CCN(CC2CC=CCC2)CC1 (stereo unspecified)	1.4
130	CCOC(=O)C(=O)/C(=C\N(C)C)c1onc(-c2c(F)cccc2Cl)c1C(=O)OC	i
131	O=C(CC1Oc2ccccc2NC1=O)NCc1ccccc1 (stereo unspecified)	2.2
132	COc1cccc(NC(=O)Nc2ccc3nsnc3c2)c1	i
133	COc1ccccc1CCNC(=O)c1ccc(C)o1	0.8
134	CCOC(=O)c1nnc(-c2ccc(C)cc2)nc1Sc1cccc(Cl)c1	2.3
135	c1ccc2c(N3CCCCCC3)nc(-c3ccncc3)nc2c1	2.3
136	O=C(CSc1n[nH]c(C2CCCC2)n1)NC1CCCC1	0.7
137	CC1(C)Cc2c(sc3ncnc(N)c23)CO1	i
138	Cc1oc(-c2cccc(Cl)c2)nc1CN1CCC(C(=O)NCC2CCCO2)CC1 (stereo unspecified)	i

Quoted at random: 3 records from the list
item	canonical_smiles	H5N1 antiviral
138	Cc1oc(-c2cccc(Cl)c2)nc1CN1CCC(C(=O)NCC2CCCO2)CC1 (stereo unspecified)	i
126	CC(C)(C)C(=O)Nc1ccc(-c2cn3ccsc3n2)cc1	i
123	CCCC1(C(=O)OCC)NC(c2cc(OC)c(OC)c(OC)c2)C2C(=O)N(CC)C(=O)C21 (stereo unspecified)	i

Screening results as filed in PubChem BioAssay.
